NS1 inh: influenza NS1 inhibition; 0.4% of 270,000 active; S. cerevisiae slowed by influenza A NS1, growth recovery by OD600; AID 2326; Potency, µM (highest dose often 46.1 µM), without a hit: at the top dose activity, positive = more growth; further: actives are rising curves; nearly all actives have a fitted effect of over 50% in size
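S. cerevisiae expressing influenza A NS1, grown in glucose, washed, then diluted 1:100 into pH 6.0 -URA galactose medium with 23 nl compound. Growth recovery read as OD600; NS1-free strain serves as control.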
RE007 growth inh: less growth of the S. pombe RE007 Vpr strain; 0.21% of 360,000 active; AID 651644; S. pombe RE007 Vpr strain, BacTiter-Glo ATP luminescence, 24 h; control for the full effect not named in the record; Potency, µM (series often up to 92.2 µM), inactives show at the highest dose activity change, negative = less growth; active = well fitted falling curve with a large enough effect; inconclusive = small, poorly fitted or top-dose-only effect; inactive = no such curve, though single readings can be large or run the other way;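 further: on the % scale 0 is the no-effect control and ±100 the full control effect; nearly all actives have a fitted effect of over 50% in size; the assay follows cell death caused by Vpr and the record does not say whether a fall means rescue or toxicity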
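Fission yeast RE007 carrying one integrated HIV-1 vpr copy, seeded at OD 0.01 in PMG+AL medium with 23 nL pinned compound. Grown 24 h at 30 degrees; viability read by BacTiter-Glo luminescence after 5 min.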
Cruzain inh Det: blocks cruzain activity in presence of Triton detergent; Potency, µM, without a hit: max response, negative = inhibition, usual class: inhibitors; 0.43% of 200,000 active; purified cruzain, Z-FR-AMC fluorescence, 0.01% Triton; active means well fitted curve in the direction sought with a large enough effect; inconclusive means small, poorly fitted or top-dose-only effect, or another doubt; inactive means no such curve, though single readings can be large; an effect the other way counts as inactive or inconclusive;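 further: plate controls were neutral wells for no effect and buffer without enzyme for full effect; nearly all actives have a fitted effect of over 40% in size; top concentration of the series not given in the record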
Target sequence (P25779 123-467 limits assumed): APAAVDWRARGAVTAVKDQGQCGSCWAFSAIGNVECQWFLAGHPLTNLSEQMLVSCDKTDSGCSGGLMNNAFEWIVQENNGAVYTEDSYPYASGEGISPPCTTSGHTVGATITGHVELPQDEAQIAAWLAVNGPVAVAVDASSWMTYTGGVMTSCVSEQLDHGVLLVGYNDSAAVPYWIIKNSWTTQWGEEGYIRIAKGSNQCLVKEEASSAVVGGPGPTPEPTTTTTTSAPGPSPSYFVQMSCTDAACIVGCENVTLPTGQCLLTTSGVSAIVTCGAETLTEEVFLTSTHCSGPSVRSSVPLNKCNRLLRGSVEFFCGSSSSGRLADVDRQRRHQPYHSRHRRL
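Enzyme 1.5 nM, Z-FR-AMC 2 uM, NaOAc 100 mM pH 5.5, DTT 5 mM, Triton X-100 0.01%; 15 min RT compound preincubation; kinetic ex360/em450, 60 s delta.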
SARS PLP yeast: inhibitors of SARS-CoV papain-like protease in yeast | S. cerevisiae expressing SARS-CoV PLpro, growth rescue; control for the full effect not named in the record | Potency, µM (titrated, usually from 32.9 µM), without a hit: at the highest dose activity, positive = growth rescue | 0.19% of 330,000 active | AID 485353; further: 0% is about no effect; nearly all actives have a fitted effect of over 55% in size; growth read by luminescence after 48 h
Cruzain inh noDet: inhibitors of Trypanosoma cruzi cruzain without detergent. AID 1476. 2.3% of 200,000 active. purified cruzain, Z-FR-AMC fluorescence, no detergent. Potency, µM, for inactives: max response, negative = inhibition, actives largely listed as inhibitors. P25779; active means well fitted curve in the direction sought with a large enough effect; inconclusive means small, poorly fitted or top-dose-only effect, or another doubt; inactive means no such curve, though single readings can be large; an effect the other way counts as inactive or inconclusive;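 further: plate controls were enzyme without inhibitor for no effect and buffer without enzyme for full effect; nearly all actives have a fitted effect of over 40% in size; top concentration of the series not given in the record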
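Purified cruzain at 1.5 nM, pre-incubated 15 min with compound at room temperature in 100 mM sodium acetate pH 5.5, 5 mM DTT, 0.00005% Triton X-100. Reaction started with 2 uM Z-FR-AMC; AMC fluorescence increase over 60 s gives rate.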
MARV entry inh: Marburg virus entry inhibition; Marburg virus pseudotyped entry inhibition, cell reporter; control for the full effect not named in the record; about a third of the inactives were read at about 46 µM; Potency, µM (doses to about 37.8 µM), inactives show at the top dose activity change, negative = inhibition, actives largely listed as inhibitors; 1.8% of 300,000 active; AID 540276; active = well fitted inhibition curve with a large enough effect; inconclusive = small, poorly fitted or top-dose-only effect, or effect the other way; inactive = flat fitted curve, though single readings scatter; tested in HEK293 cells; about a fifth of its hits are not listed in these tables; further: on the % scale 0 is the no-effect control and ±100 the full control effect; luciferase read-out
Lassa entry inh: inhibitors of Lassa virus binding or cell entry; Lassa virus pseudotype entry inhibition, cell reporter; control for the full effect not named in the record; Potency, µM (series often up to 37.9 µM), without a hit: top-dose activity change, negative = inhibition, hits mostly inhibitors; 1.2% of 300,000 active; active means well fitted inhibition curve with a large enough effect; inconclusive means small, poorly fitted or top-dose-only effect, or effect the other way; inactive means flat fitted curve, though single readings scatter; tested in HEK293 cells; further: on the % scale 0 is the no-effect control and ±100 the full control effect; nearly all actives have a fitted effect of over 50% in size; luciferase read-out
StopGo reporter: FMDV 2A StopGo reporter, luciferase signal; human cells with a luciferase reporter of 2A StopGo recoding; control for the full effect not named in the record; Potency, µM (top dose mostly 57.9 µM), for inactives: at the top dose signal change, negative = less light; 1.2% of 410,000 active; active = well fitted falling curve with a large enough effect; inconclusive = small, poorly fitted or top-dose-only effect; inactive = no such curve, though single readings can be large or run the other way; tested in HEK293T cells; further: on the % scale 0 is the no-effect control and ±100 the full control effect; nearly all actives have a fitted effect of over 45% in size; luciferase light after 4 h
Starred values were filed as active, the others as inactive; ? = inconclusive; nt = not tested or not shown; & = joins results of further samples; [ ] = dose if it differs, or a comment. Unless noted, the call rests on the fitted dose curve; in most records, active means well fitted rising curve with a large enough effect; inconclusive means small, poorly fitted or top-dose-only effect; inactive means no such curve, though single readings can be large or run the other way. Potency means the concentration at half of the fitted maximal effect.

Compound	NS1 inh	RE007 growth inh	Cruzain inh Det	SARS PLP yeast	Cruzain inh noDet	MARV entry inh	Lassa entry inh	StopGo reporter
COc1ccc(-c2nnc(SCC(=O)Nc3c(Cl)cc(Cl)cc3C(=O)O)o2)cc1	nt	-7%	nt	-4%	nt	-6%[46.1 µM]	-16%[46.1 µM]	-10%
Cn1ncc2cc(NC(N)=S)ccc21	nt	-7%	nt	1%	nt	11%[46.1 µM]	7%[46.1 µM]	27%
O=c1[nH]c2ccccc2n1Cc1ccc(F)cc1	-5%	19%	nt	-3%	nt	nt	nt	-18%
Cc1ccc(CNS(=O)(=O)c2ccc(C(=O)N(C)C)s2)cc1	nt	nt	-0.4%	nt	6%	nt	-1%[46.1 µM]	-17%
O=C(CSc1nnc(NCc2ccccc2)s1)c1ccco1	-17%	6%	1.2%	-1%	-3%	15%	-15%	0%
O=C(Nc1ccc(N2CCCC2)cc1)c1cccc(F)c1	-1%	3%	-14%	-2%	?	?	?	57%[activator]
Cc1ccc2cc(CCNC(=O)CC(C)C)c(=O)[nH]c2c1	-28%	1%	-3.0%	23%	-1%	nt	nt	-13%
O=C(Nc1cccc(O)c1)c1cnn2cccnc12	9%	10%	-1.0%	8%	5%	-41%	-6%	49%[activator]
O=[N+]([O-])c1ccc(N2CCN(Cc3ccc(Br)o3)CC2)cc1	-18%	5%	nt	-4%	nt	nt	nt	?
COc1cccc(CCN2CCC(CNS(=O)(=O)c3cc(-c4cc(C)no4)ccc3C)CC2)c1	-11%	1%	nt	3%	nt	nt	nt	?
CN(CCO)CC(O)Cn1cnc2c1c(=O)n(C)c(=O)n2C (stereo unspecified) (tested in a mixture with another compound)	10%	-1%[18.4 µM]	1.8%	3%	2%	-17%&-17%&-17%&-17%	7%	-19%
CCN(CC)C(=O)COc1coc(CN2CCN(c3ccc(F)cc3)CC2)cc1=O	14%	11%	nt	0%	nt	25%[46.1 µM]	-6%[46.1 µM]	-18%
CCN(C(=O)Cc1c(C(=O)O)[nH]c2ccccc12)c1cc(OC)ccc1OC	-8%	-10%	9.8%	?	5%	-20%	12%	-4%
Cc1ccc(C(=O)NCCN2C3=NC[C@@H](Cc4ccccc4)N3C[C@H]2Cc2ccc(O)cc2)cc1Br	-2%	-11%	nt	1%	nt	nt	nt	-21%
CC(=O)Nc1ccc(SCC(=O)Nc2ccccc2N2CCOCC2)cc1	nt	-4%	nt	-1%	nt	-13%	16%	-14%
CCOC(=O)CSCC(NC(=O)OC(C)(C)C)C(=O)OCC (stereo unspecified)	-3%	1%	0.9%	1%	-5%	-2%[46.1 µM]	-8%	-16%
Cc1c(Cc2ccccc2)c(=O)oc2c(C)c(OCC(=O)N3CCC(C(=O)O)CC3)ccc12	?	8%	nt	-12%	nt	nt	nt	-17%
O=C(NCCCNC(=O)c1ccc(Cl)cc1Cl)c1ccco1	5%	9%	nt	3%	nt	-6%[46.1 µM]	-1%[46.1 µM]	-6%
CC(C)(O)CNC(=O)Nc1ccc(Cl)c(Cl)c1	2%	1%	nt	2%	nt	nt	nt	9%
C/C(O)=C\c1nc(=O)c2c(C)cc(C)nc2n1-c1ccccc1	-3%	1%	-4.0%	2%	-7%	-18%	-13%	nt
CCc1ccc(Nc2nnc(SCC(=O)Nc3ccc(C(=O)O)cc3)s2)cc1	9%	-4%	nt	-2%	nt	nt	nt	-2%
CC1CC(C)(C)N2C(=O)C3(Nc4ccccc4S3)c3cccc1c32 (stereo unspecified)	-79%	?	-7.0%	-35%	-22%	?	0%	-21%
O=c1c(Oc2ccccc2F)coc2cc(OCc3cnn(-c4ccccc4)c3)ccc12	5%	-7%	-3.7%	18%	-29%	-12%	-1%	-5%
Clc1ccc(COn2nnc3ccccc32)c(Cl)c1	-23%	-20%	-2.6%	nt	-1%	?	12%	5%
Cc1cccc(-c2nc(CCNC(=O)c3ccco3)cs2)c1	nt	-21%	-4.8%	nt	-6%	nt	-15%[46.1 µM]	-25%&-8%
N#Cc1ccc(CSc2nnc(-c3ccccn3)n2-c2ccccc2)cc1	-9%	20%	0.1%	-5%	0%	?	?	-10%
CC1(C)CC(=O)C2=C(C1)Nc1ccccc1NC2c1cccs1 (stereo unspecified)	11%	6%	nt	0%	nt	10%[46.1 µM]	-6%	5%
Cn1c(SCc2c(F)cccc2Cl)nc2c(c1=O)SCC2	-7%	-18%	nt	-1%	nt	-23%	-10%	?
CNc1cccnc1C=NNC(N)=S	nt	2%	nt	nt	nt	1.3µM*	0.63µM*	2%
O=S(=O)(Cc1ccccc1)Nc1cccc(Br)c1	-7%	-10%	nt	-1%	nt	nt	nt	36%[activator]
CC(NC(=O)COC(=O)c1ccc2c(c1)OCCO2)c1ccccc1 (stereo unspecified)	nt	1%	nt	-5%	nt	?	?	21%
CC1=NN(c2ccc(Cl)c(C(=O)O)c2)C(=O)/C1=C\c1ccc(-c2ccc(C(=O)O)cc2)o1	nt	-16%	nt	0%	nt	15%[46.1 µM]	5%	2%
O=C(CSC1=Nc2ccccc2N=C(c2ccc(F)cc2)C1)NCc1ccc(Cl)cc1	nt	nt	-0.7%	nt	6%	nt	7%[46.1 µM]	-6%
CCC1CCCCN1C(=O)CSc1nnc(CNC(=O)c2ccco2)o1 (stereo unspecified)	-4%	7%	0.5%	3%	7%	-2%	?	1%
O=c1c2ccccc2nc(SCCN2CCCCC2)n1CCc1ccccc1	2%	2%	nt	-1%	nt	?	?	-19%
CCn1c(=O)cc(OCC(=O)N2CCCC2)c2ccccc21	?	-1%	-2.0%	-1%	-9%	nt	nt	-22%
O=C(N/N=C/C(c1ccccc1)c1ccccc1)c1ccccc1F	4%	9%	nt	-1%	nt	?	?	-15%
Nc1nc2sc3c(c2cc1C(=O)NCC(=O)O)CCCC3	5%	-23%	nt	-1%	nt	nt	nt	-19%
CS(=O)(=O)N(Cc1ccc(C(=O)N2CCc3ccccc3C2)cc1)c1ccccc1	-5%	11%	nt	0%	nt	?	?	0%
Cc1cc(C)c2nc(SC(C)C#N)cc(C)c2c1 (stereo unspecified)	-5%	-16%	-3.7%	5%	-4%	-18%	-12%	-17%
N#Cc1ccccc1S(=O)(=O)N1CCN(C(=O)Cc2n[nH]c(=O)c3ccccc23)CC1	nt	-20%	nt	-2%	nt	18%[46.1 µM]	1%[46.1 µM]	2%
CCc1cccc(CC)c1NC(=S)Nc1ccc2cn[nH]c2c1	-6%	-2%	nt	-1%	nt	nt	nt	-4%
COc1ccc(COC(=O)c2n[nH]c3ccccc23)cc1F	-11%	3%	-7.7%	-4%	-11%	-28%	?	29%
CC(C)(NC(=O)N1CCOCC1)c1cccc(C(C)(C)NC(=O)N2CCOCC2)c1	nt	23%	nt	nt	nt	0%	24%	11%
C=CCNC(=O)c1c(Cl)cnn1-c1ccc(C)cc1	-6%	-5%	nt	2%	nt	?	?	21%
COc1ccc2c(c1)N(C)/C(=C1/SC(=NCc3ccccc3)N(c3ccccc3)C1=O)S2	16%	2%	-3.4%	5%	?	-4%	-14%	-19%
CCOC(=O)C1CCN(C(=O)CN(C)S(=O)(=O)c2ccc3c(c2)c(=O)n(C)c(=O)n3C)CC1	3%	-9%	nt	6%	nt	19%[46.1 µM]	8%[46.1 µM]	-8%
N=C1/C(=C\c2coc3ccc(O)cc3c2=O)C(=O)N=C2SC=CN12	6%	4%	nt	0%	nt	-17%[46.1 µM]	12%	-25%
O=S(=O)(c1ccc(-c2ccccc2)cc1)N1CCCCC1	20%	-6%	nt	2%	nt	5%	-14%	-6%
CC(C)(Cc1cc(CC(C)(C)C(=O)O)cc(C(C)(C)C)c1)C(=O)O	21%	2%	nt	9%	nt	nt	nt	-9%
O=C1CN(C(=O)COC(=O)c2oc3ccccc3c2COc2ccccc2)c2ccccc2N1	2%	-7%	5.1%	-7%	-23%	-26%&-26%	4%	-21%
COC(=O)c1cn(CC(=O)Nc2ccc(OC)cc2)c2ccccc12	8%	0%	nt	-4%	nt	nt	nt	1%
NS(=O)(=O)c1ccc(CCNC(=O)CSc2ccc([N+](=O)[O-])cc2)cc1	-12%	4%	nt	-1%	nt	3%[46.1 µM]	3%[46.1 µM]	-1%
COc1ccc2cc3cc(C(=O)NCCCN4CCc5ccccc5C4)sc3nc2c1	7%	-11%	-12%	9%	-3%	?	?	46%[activator]
O=C(CBr)N1CCc2ccccc2C(c2ccccc2)C1 (stereo unspecified)	2%	-1%	nt	-2%	nt	18%[46.1 µM]	6%	-1%
CCOC(=O)Cn1c(=O)c2c(nc(Br)n2Cc2ccccc2)n(C)c1=O	-8%	nt	-2.8%	0%	6%	1%	nt	nt
CCCC(C(=O)NNC(=O)c1cc(C)oc1C)c1ccccc1 (stereo unspecified)	nt	-14%	nt	-5%	nt	-15%	25%	-10%
CC(C)Cn1c(-c2cccs2)nc2ccccc21	-135%	-8%	-1.7%	-14%	0%	-17%	-24%	0%
CC1(C)CC(=O)c2cc(C(=O)NCc3ccco3)c(=O)n(-c3ccc(Cl)cc3)c2C1	2%	-6%	-5.7%	1%	22%	-18%	20%	-21%
CCCNC(=O)C(=O)NCc1ccccn1	2%	-4%	nt	0%	nt	9%	21%	5%

The list continues.
Compound	NS1 inh	RE007 growth inh	Cruzain inh Det	SARS PLP yeast	Cruzain inh noDet	MARV entry inh	Lassa entry inh	StopGo reporter
COc1ccc(/C=N/Nc2nnc(Cc3ccccc3)c(=O)[nH]2)cc1OC	3%	-10%	nt	2%	nt	2%	-21%	20%
COc1ccc(C(CC(=O)N2CCN(c3ccccc3)CC2)c2c(O)cc(OC)cc2OC)cc1 (stereo unspecified)	-1%	17%	nt	-1%	nt	nt	nt	-23%
O=C(Nc1ccc(F)cc1F)c1ccc2ncsc2c1	-20%	1%	nt	15%	nt	nt	nt	6%
COc1ccccc1-n1c(SCC(=O)NC2CCCC2)nc2cccnc21	-3%	-6%	5.1%	-1%	1%	-5%	9%	-11%

High-throughput results deposited in PubChem BioAssay by National Center for Advancing Translational Sciences (NCATS).
